Bioassay records as filed in PubChem.
Env fusion inh – inhibitors of HIV-1 Env-driven cell-cell fusion, primary screen, HeLa-JRFL effector, CEM21 target cells, luciferase. inhibition, % at 12.3 µM. AID 651610, 2012. 1.1% of 360,000 active;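 active = mean replicate inhibition score of at least 50 and every replicate individually at or above 50; inconclusive = only one of the two criteria met; inactive = mean below 50 and not all replicates reaching 50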;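 also: 0% = plate neutral controls and 100% = maraviroc near 300 nM; one replicate is shown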
MT1-MMP act inh – blockers of MT1-MMP proenzyme processing, primary screen, HT1080 RFP-PRO-GFP cells, GFP/RFP fluorescence; Matrix metalloproteinase-14 (Homo sapiens), P50281; GFP/RFP ratio fluorescence, overnight; percent of plate control window, DMSO zero; GFP/RFP ratio change, % at 20 µM; 0.061% of 360,000 active; AID 651647, 2012;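 active = GFP/RFP ratio change of at least 30% with cell ATP level not reduced by more than half and red fluorescence within 50% of control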; also: strong numbers were not always called active
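Test system: HT1080 cells expressing an RFP-PRO-GFP fluorescent reporter construct / Compound dosing: single-point 20 µM compound, 1% DMSO / Schedule: cells overnight before dosing, compound overnight, 37 °C, 5% CO2 / Evaluation: GFP/RFP fluorescence ratio / Control set: DMSO and RFP-L50D-GFP cell wells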
UUG fidelity – modulators of yeast start codon fidelity, primary screen, whole organism, S. cerevisiae, single point, plate reader; S. cerevisiae UUG-firefly luciferase reporter, luminescence/redox ratio; AID 602363, 2012; activity score, % at 18.7 µM; 0.13% of 350,000 active;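 active = replicate mean at a twofold rise or more, about +100% in these data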;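 also: firefly luciferase made from a UUG start codon reports start codon fidelity; reporter light over untreated wells divided by growth signal over untreated wells; some hits fall short of that in this replicate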
Rce1 inhib – yeast Rce1p protease inhibitors, primary screen, biochemical, fluorescence, cell-free homogeneous; yeast membranes, quenched prenylated peptide cleavage fluorescence; 0.27% of 290,000 active; CAAX prenyl protease 2 (Saccharomyces cerevisiae (strain ATCC 204508 / S288c)), Q03530; calls only; AID 2563, 2010;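 active = fall in fluorescence gain of 50% or more versus controls, with final raw signal at or below 3038400; inconclusive = same 50% fall but final raw signal above 3038400; inactive = fall in fluorescence gain under 50%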;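 also: plate controls were neutral control wells for no effect and wells lacking membranes for full effect; tested at 10 µM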
Target sequence (Q03530 whole entry, looked up): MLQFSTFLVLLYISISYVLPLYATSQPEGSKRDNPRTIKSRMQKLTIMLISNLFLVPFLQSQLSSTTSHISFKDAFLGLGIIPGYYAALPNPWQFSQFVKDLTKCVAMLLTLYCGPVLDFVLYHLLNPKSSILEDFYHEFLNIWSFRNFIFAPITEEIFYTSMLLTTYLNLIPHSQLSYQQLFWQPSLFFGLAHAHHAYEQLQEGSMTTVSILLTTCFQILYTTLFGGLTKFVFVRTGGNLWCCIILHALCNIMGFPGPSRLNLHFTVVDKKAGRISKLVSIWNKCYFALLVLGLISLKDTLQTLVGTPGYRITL
PABP FP inh – PABP poly(A) RNA binding inhibitors, primary screen, biochemical, fluorescence polarization, uHTS; Polyadenylate-binding protein 1 (Homo sapiens), P11940; AID 2014, 2009; 1% of 290,000 active; inhibition, % at 35 µM;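 active = 50% or more with normal probe brightness, or confirmed in later tests; inconclusive = above 50% with abnormal brightness, or retests that disagree; inactive = below 50% or failed in later tests; about a fifth of its hits are not listed in these tables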;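 also: calls also rest on retests at 20 µM and on dose response follow-up; controls were probe without protein and protein plus probe with vehicle; some compounds called inactive have numbers as strong as hits; many hits fall short of the cut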
Target sequence (P11940 whole entry, looked up): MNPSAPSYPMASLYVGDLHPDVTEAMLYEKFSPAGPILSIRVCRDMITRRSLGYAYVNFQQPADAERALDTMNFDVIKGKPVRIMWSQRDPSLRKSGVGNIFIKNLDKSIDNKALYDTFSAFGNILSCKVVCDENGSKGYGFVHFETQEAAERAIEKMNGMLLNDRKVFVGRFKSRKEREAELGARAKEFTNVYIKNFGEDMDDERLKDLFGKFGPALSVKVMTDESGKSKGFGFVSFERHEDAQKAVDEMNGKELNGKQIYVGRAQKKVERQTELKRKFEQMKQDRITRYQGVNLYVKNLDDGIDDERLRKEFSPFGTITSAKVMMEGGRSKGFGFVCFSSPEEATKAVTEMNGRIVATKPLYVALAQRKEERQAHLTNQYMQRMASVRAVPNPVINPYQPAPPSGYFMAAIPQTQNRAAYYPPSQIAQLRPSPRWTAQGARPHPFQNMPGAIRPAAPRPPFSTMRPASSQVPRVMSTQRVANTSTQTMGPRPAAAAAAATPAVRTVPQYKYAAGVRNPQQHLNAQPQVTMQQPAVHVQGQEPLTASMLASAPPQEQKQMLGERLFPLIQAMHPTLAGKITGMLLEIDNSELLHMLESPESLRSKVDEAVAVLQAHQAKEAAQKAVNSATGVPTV
eIF4H inh – human eIF4H binding inhibitors, primary screen, translation initiation inhibitor project, biochemical, uHTS, fluorescence polarization | 0.94% of 290,000 active | eIF4H fluorescence polarization binding assay | AID 2012, 2009 | inhibition, % at 35 µM;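 active = 50% or more with normal probe brightness, or confirmed in later tests; inconclusive = above 50% with abnormal brightness, or retests that disagree; inactive = below 50% or failed in later tests; about a fifth of its hits are not listed in these tables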;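 also: calls also rest on retests at 20 µM and on dose response follow-up; 0% = protein and probe with vehicle and 100% = probe without protein; strong numbers were not always called active; many hits fall short of the cut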
CSC inhib – cancer stem cell viability inhibitors, primary screen, luminescence; cancer stem cell-like cells viability; 1.1% of 300,000 active; inhibition, % at 7.5 µM; AID 2717, 2010;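 active = mean at 75% or more and at least half the replicates too; inconclusive = mean and replicates disagree; tested in HMLE shEcad cells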;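 also: 0% = median of negative and 100% = median of positive control wells; the first replicate is given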
eIF4H inh retest – recorded beside eIF4H inh, whose call it bears; inhibition, %; compound at 20 µM; confirmation average;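 mean of two retest wells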
PABP FP inh retest – second read-out of PABP FP inh, no call of its own (marks repeat the call); inhibition, %; compound at 20 µM; confirmation repeats;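 mean of two retest wells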
MT1-MMP act inh RFP – further read-out of MT1-MMP act inh, marked with its call; RFP signal change, %; measured here: RFP expression control read;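 0 = vehicle wells; hits needed this value within 50% of zero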
An asterisk follows results filed as active; i = inactive; ? = inconclusive; / = no result given. The list is partial; rates above refer to the full screens.

SMILES	Env fusion inh	MT1-MMP act inh	MT1-MMP act inh RFP	UUG fidelity	Rce1 inhib	PABP FP inh	eIF4H inh	CSC inhib	others
Cc1cc(C)cc(NC2=CC(=O)CC(c3ccco3)C2)c1 (stereo not drawn)	0	-3	-3	/	i	16	16	-3
C/C=C/C1=CC(=O)C[C@H](c2ccc(Cl)cc2)C1	27	2	-2	-9	/	/	/	-15
O=C(CSc1nnc(C2COc3ccccc3O2)o1)N1CCOCC1 (stereo not drawn)	/	0	-2	-12	i	-5	-2	-9
NS(=O)(=O)c1ccc(NC(=S)NCc2ccccc2)cc1	-1	0	1	-13	i	-7	-4	-1
Cc1ccccc1CN(c1ccc(C(=O)N/N=C/c2ccc(OCC(N)=O)cc2)cc1)S(C)(=O)=O	-4	1	2	/	i	-2	-12	9
Cc1cc(C)c(-c2csc(NC(=O)C3=NN(c4ccccc4)C(=O)CC3)n2)c(C)c1	6	-16	-30	/	i	-23	-6	33
COCC(C)NC(=O)c1noc2c1CCc1cc(OC)ccc1-2 (stereo not drawn)	-100	2	0	-12	i	4	-4	-4
O=C(Cn1cnc2ccccc21)N/N=C/c1cccc([N+](=O)[O-])c1	10	3	-2	-16	i	-6	3	6
COc1ccc(C(=O)O)cc1S(=O)(=O)N(C)CCc1ccccn1	-2	-4	4	-12	i	-7	-4	-6
C/C(=N/NC(=O)c1ccc(Br)s1)c1cccnc1	-23	-4	-3	-8	i	-6	2	0
COCCNc1ncnc2c1ncn2[C@H]1CN(Cc2ccccc2)C[C@@H](CO)O1	7	0	7	-11	/	/	/	/
O=C(Nc1ccccc1)Oc1ccccc1N1CCOCC1	1	2	4	/	i	-4	4	-3
COC(=O)c1cc(OC)c(OC)c(OC)c1N	-9	-7	1	-4	i	1	-8	/
CCC(C)NC(=O)c1nn(Cc2ccccc2)c(=O)c2ccccc12 (stereo not drawn)	7	2	-2	-9	i	-1	0	-5
Cc1cc2cc(CNC(=O)c3ccc(S(=O)(=O)N4CCOCC4)cc3)ccc2n1C	/	35	56	-10	i	-15	18	-13
COc1ccc(C(CNC(=O)c2ccc(-n3cnnn3)cc2)N2CCOCC2)cc1 (stereo not drawn)	/	1	0	-15	i	-12	-15	-2
NC(=O)CSc1nnc(-c2ccc([N+](=O)[O-])cc2)o1	-9	-3	-1	/	i	-5	3	-9
Cc1cc(/C=C(/C#N)c2nc3ccccc3[nH]2)c(C)n1-c1cccc([N+](=O)[O-])c1	/	2	-14	/	i	23	16	19
CC(=O)c1cccc(NC(=O)CN2C(=O)C(=O)N(Cc3ccco3)C2=O)c1	/	3	4	3	/	/	/	-6
COC(=O)C1=C(C)N(c2cccc(OC)c2)C(=O)/C1=C\c1ccco1	5	1	-1	/	i	-9	14	9
N#CCc1nc2ccc(S(=O)(=O)N3CCOCC3)cc2s1	-6	-38	22	-6	i	25	68	-1	eIF4H inh retest=-3;PABP FP inh retest=-7
Cc1cccc(Nc2c(F)c(F)c(F)c(F)c2C(=O)O)c1	-6	2	8	/	i	-7	4	-20
COc1ccc2c(c1OC)C(=O)N(c1ccc(F)cc1)C2	-43	-2	-5	-19	i	5	3	-2
Cc1ccc(C)c(N2CCN(C(=O)Cc3cn(C)c4ccccc34)CC2)c1	19	-10	0	-11	i	-1	8	-1
COc1ccc(CNC(=O)c2sc3nc4c(c(C(F)(F)F)c3c2N)CCC4)cc1	/	/	/	/	i	-7	0	-2

Sorted by SMILES length (high to low): part of the list above
SMILES	Env fusion inh	MT1-MMP act inh	MT1-MMP act inh RFP	UUG fidelity	Rce1 inhib	PABP FP inh	eIF4H inh	CSC inhib	others
COc1ccc(C(CNC(=O)c2ccc(-n3cnnn3)cc2)N2CCOCC2)cc1 (stereo not drawn)	/	1	0	-15	i	-12	-15	-2
COc1ccc(C(=O)O)cc1S(=O)(=O)N(C)CCc1ccccn1	-2	-4	4	-12	i	-7	-4	-6
NS(=O)(=O)c1ccc(NC(=S)NCc2ccccc2)cc1	-1	0	1	-13	i	-7	-4	-1

Additional records:
SMILES	Env fusion inh	MT1-MMP act inh	MT1-MMP act inh RFP	UUG fidelity	Rce1 inhib	PABP FP inh	eIF4H inh	CSC inhib	others
Cc1nnc(SCc2cccc3ccccc23)s1	-23	-2	-2	-4	i	-5	2	0
COc1cc(OC)cc(C(=O)NCC(=O)OCc2cc(=O)oc3cc(OC)ccc23)c1	-5	-2	1	/	/	2	-16	-7
COc1ccc(NC(=O)CN2C(=O)NC3(CCCCC3C)C2=O)cc1S(=O)(=O)N1CCOCC1 (stereo not drawn)	/	2	4	-2	/	/	/	-13
COc1ccc(N2CCN(C(=O)COc3ccc4c(C)cc(=O)oc4c3C)CC2)cc1	4	1	2	-16	i	6	-5	0
COc1ccc(N/C=C/C(=O)c2ccc(C)cc2)c([N+](=O)[O-])c1	/	7	7	1	i	/	/	-3
Cn1c(SCC(=O)N2CCCC2)nnc1-c1cnccn1	10	-3	2	-12	i	-7	-6	-19
Cc1cc(C)c2c(N)c(C(=O)N3CCCCCC3)sc2n1	-13	4	5	-12	i	8	-10	-1
O=C1c2ccccc2C(=O)C1c1ccc(Cl)cc1	-29	-2	6	-6	i	0	-5	10
Cc1ccc(C)c(NC(=O)/C(C#N)=C/c2ccc[nH]2)c1	-19	2	3	-4	i	-2	-13	-4
CCCCN(C=O)c1c(CC)nc2c(OCCC)cccn12	18	2	3	-27	/	/	/	/
CCc1nnc(N/N=C\c2ccc(OC(C)=O)c(OC)c2)n1N	-3	/	/	-10	i	8	6	-6
Cn1nnnc1SCC(=O)Nc1nc(-c2ccccc2)c(-c2ccccc2)o1	/	6	4	-8	i	0	6	5
CC(C)c1cc(C(=O)N/N=C/C=C/c2ccccc2)n[nH]1	-60	5	0	/	i	-18	-14	1
CCOCC(=O)Nc1nc2ccc(C)cc2s1	/	3	1	-20	i	2	-3	-6
C=CCn1c(NC(=O)c2ccccc2Cl)c(C#N)c2nc3ccccc3nc21	20	-68	-2	/	i	20	5	32
N#CC(C#N)=C1C=C2C=C(N3CCCCC3)CCC2CC1 (stereo not drawn)	/	/	/	/	/	0	?	14
CCC(C(=O)OCC(=O)Nc1cccc(S(=O)(=O)NC2=NCCCCC2)c1)c1ccccc1 (stereo not drawn)	/	/	/	/	i	60	7	-8	eIF4H inh retest=-6;PABP FP inh retest=8
CCCn1c2ccccc2c2nnc(SCCN3CCOCC3)nc21	11	-4	1	-20	i	1	-2	-6
CC(C)CNC(=O)C(=O)NCC1OCCCN1S(=O)(=O)c1cccs1 (stereo not drawn)	-12	2	1	-12	i	4	1	-19
CCOC(=O)c1c(C)n(-c2ccccc2)c2ccc(O)c(CN(C)C)c12	25	1	-5	/	i	-3	0	7
COc1ccc(-c2oc3cc(OC)c(O)c(OC)c3c(=O)c2OC)cc1O	/	1	-5	2	i	2	9	0
CC(C)CN1CCN(Cc2ccc(Oc3ncccn3)cc2)CC1CCO (stereo not drawn)	-6	0	0	-15	i	2	0	-9
Cn1c(=O)n(CCc2ccccc2)c(=O)c2c1nc1n2CCN1Cc1ccco1	13	2	0	-11	i	5	-5	-4
COc1ccccc1C(=O)Nc1cccc(SC)c1	-168	-4	-14	/	i	0	-10	5
COc1ccccc1NC(=S)NC(=O)CCCOc1ccc(Cl)cc1Cl	/	1	1	-16	i	1	10	-13

In the list so far, 8 have a halogen:
SMILES	Env fusion inh	MT1-MMP act inh	MT1-MMP act inh RFP	UUG fidelity	Rce1 inhib	PABP FP inh	eIF4H inh	CSC inhib	others
C/C=C/C1=CC(=O)C[C@H](c2ccc(Cl)cc2)C1	27	2	-2	-9	/	/	/	-15
C/C(=N/NC(=O)c1ccc(Br)s1)c1cccnc1	-23	-4	-3	-8	i	-6	2	0
Cc1cccc(Nc2c(F)c(F)c(F)c(F)c2C(=O)O)c1	-6	2	8	/	i	-7	4	-20
COc1ccc2c(c1OC)C(=O)N(c1ccc(F)cc1)C2	-43	-2	-5	-19	i	5	3	-2
COc1ccc(CNC(=O)c2sc3nc4c(c(C(F)(F)F)c3c2N)CCC4)cc1	/	/	/	/	i	-7	0	-2
O=C1c2ccccc2C(=O)C1c1ccc(Cl)cc1	-29	-2	6	-6	i	0	-5	10
C=CCn1c(NC(=O)c2ccccc2Cl)c(C#N)c2nc3ccccc3nc21	20	-68	-2	/	i	20	5	32
COc1ccccc1NC(=S)NC(=O)CCCOc1ccc(Cl)cc1Cl	/	1	1	-16	i	1	10	-13

(next part)
SMILES	Env fusion inh	MT1-MMP act inh	MT1-MMP act inh RFP	UUG fidelity	Rce1 inhib	PABP FP inh	eIF4H inh	CSC inhib	others
COc1ccccc1C1C(C(=O)c2cc3ccccc3o2)=C(O)C(=O)N1CCN(C)C (stereo not drawn)	/	-3	-1	-21	i	9	-5	-16
O=C(c1ccco1)[C@@H]1[C@@H]2C(=O)N(c3ccc(Br)cc3)C(=O)[C@@H]2C2c3ccccc3C=CN21 (stereo partly drawn)	/	-27	5	-5	/	16	55	/	eIF4H inh retest=23;PABP FP inh retest=27
CNC(=O)C(=O)NCC1OCCN1S(=O)(=O)c1ccc(OC)c(OC)c1 (stereo not drawn)	-8	-3	0	-18	i	-1	-6	0
Cc1cc(-c2sccc2Br)nc(-n2cccc2)n1	-5	-8	4	/	i	?	?	/
CC(Cl)C(=O)Nc1ccccc1C#N (stereo not drawn)	15	-3	3	-25	i	-14	-7	-6
C=CCNC(=S)N1CCC(C(=O)c2ccc(OC)cc2)CC1	/	4	2	-20	i	-9	2	-9
CCOc1ccc(-c2ncncc2-c2ccc(OC)cc2)c(O)c1	/	-7	-5	-9	i	4	-2	-2
CCCn1nnnc1SCC(=O)NCc1cccs1	/	3	4	5	i	6	8	-7
O=S1(=O)CCC(NC(=S)Nc2ccccc2)C1 (stereo not drawn)	-5	-4	-4	-4	i	5	-17	-16
COc1cc(NC(=O)COC(=O)c2cc(S(=O)(=O)N3CCOCC3)ccc2F)cc(OC)c1	-11	10	2	6	/	/	/	/
O=C(CSc1nc(C(F)(F)F)cc(=O)[nH]1)NCc1ccc2c(c1)OCO2	0	1	1	-15	i	/	/	-5
Cc1cccc(C)c1NC(=O)C1(C)c2cccc[n+]2CC(=O)N1Cc1cccs1 (stereo not drawn)	-41	-3	3	-14	i	-7	?	-8
CCCNC(=S)NNC(=O)c1cc(C2CC2)nc2ccccc12	-13	2	8	-23	i	3	15	8
CCC(C)Nc1nnc(SCC(=O)c2c(N)n(C3CC3)c(=O)[nH]c2=O)s1 (stereo not drawn)	-14	-5	6	/	/	/	/	-8
COC(=O)C1=C(CS(=O)(=O)c2ccc(Cl)cc2)NC(=O)NC1c1ccc(O)c(OC)c1 (stereo not drawn)	1	0	1	-12	i	9	-4	3
Cn1cc(CNCc2ccc(-n3cccn3)cc2)c(-c2ccccc2F)n1	25	2	-4	/	i	-13	-9	2
